# AF4-AF9 inh: inhibitors of AF4 peptide binding to AF9, primary screen, biochemical, AlphaScreen, biotin-AF4 peptide, FLAG-AF9, single point; Protein AF-9 (Homo sapiens), P42568; inhibition, % at 10 µM; 350,000 compounds, 0.47% hits; AID 651704, 2012;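 active = every replicate reaching a set inhibition limit, whatever the replicate mean, cut at about 25% in these data; inconclusive = mean inhibition reaches that limit but some replicates miss it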;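 also: 0% = plate neutral control median and 100% = total signal loss; the record names both 10 and 1 µM as test concentration; the first replicate is given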
# Target sequence (P42568 whole entry, looked up): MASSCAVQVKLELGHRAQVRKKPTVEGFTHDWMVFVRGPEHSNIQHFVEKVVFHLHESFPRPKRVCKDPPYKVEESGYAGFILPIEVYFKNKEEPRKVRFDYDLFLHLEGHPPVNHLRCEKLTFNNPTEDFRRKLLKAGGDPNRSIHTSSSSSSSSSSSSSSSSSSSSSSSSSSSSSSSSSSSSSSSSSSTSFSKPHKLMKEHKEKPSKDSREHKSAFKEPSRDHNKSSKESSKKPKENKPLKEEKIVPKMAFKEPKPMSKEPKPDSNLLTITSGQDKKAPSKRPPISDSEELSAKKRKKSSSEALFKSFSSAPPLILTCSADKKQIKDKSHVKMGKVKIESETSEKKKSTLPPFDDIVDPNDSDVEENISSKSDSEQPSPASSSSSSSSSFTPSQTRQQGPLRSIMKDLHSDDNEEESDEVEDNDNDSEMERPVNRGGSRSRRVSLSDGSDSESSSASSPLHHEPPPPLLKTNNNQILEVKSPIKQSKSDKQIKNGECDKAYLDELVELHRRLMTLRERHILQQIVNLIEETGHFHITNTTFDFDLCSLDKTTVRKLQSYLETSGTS
# FGF22 binding: binders of human FGF22 protein, primary screen, FGF22 synaptogenesis inhibitor project, biophysical, thermal shift, single point. AID 651658, 2012. 340,000 compounds, 1.5% hits. calls only at 9.99 µM. recombinant FGF22 thermal shift, SYPRO orange fluorescence; percent of sucrose octasulfate shift, DMSO zero. Fibroblast growth factor 22 (Homo sapiens), Q9HCT0;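 active = melting point raised past a set limit in the mean and every replicate; inconclusive = no clear call; three in four hits are not shown here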
# Target sequence (Q9HCT0 whole entry, looked up): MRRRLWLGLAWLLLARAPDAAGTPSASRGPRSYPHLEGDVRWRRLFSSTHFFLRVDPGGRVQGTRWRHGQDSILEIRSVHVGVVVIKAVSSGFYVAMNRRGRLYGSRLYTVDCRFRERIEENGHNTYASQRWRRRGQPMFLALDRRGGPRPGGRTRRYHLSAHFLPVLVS
# Ecoli rRNA inh: reduced GFP signal of wild-type E. coli, primary screen, bacterial rRNA inhibitor project, GFP/RFP fluorescence, OD600, single point; GFP signal change (wild-type ribosome), % (concentration not given with the values); E. coli WT GFP vs humanized-ribosome RFP mutants, 24 h; active compounds read low; DMSO median 0, no signal -100; 350,000 compounds, 1.6% hits; AID 720706, 2013;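 active = significant combined selectivity score with lowered wild-type GFP, culture density cut under 30%, mutant RFP and density less affected; inactive = any of these conditions unmet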; also: one replicate is shown; some compounds called inactive have numbers as strong as hits
# Ecoli rRNA inh OD600: second read-out of Ecoli rRNA inh, no call of its own (marks repeat the call); OD600 change, %; measured here: OD600 growth;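 optical density of the mix in the first replicate; 0 = DMSO median and -100 = no signal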
# Ecoli rRNA inh RFP: also measured in Ecoli rRNA inh; calls as there; RFP signal change, %; measured here: RFP humanized mutant strains;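 first replicate; 0 = DMSO median and -100 = no signal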
# Active calls of the source: *; i = inactive; ? = inconclusive; . = not tested or not shown; & = joins results of further samples.
SMILES	Ecoli rRNA inh OD600	FGF22 binding	Ecoli rRNA inh RFP	AF4-AF9 inh	Ecoli rRNA inh
COc1ccc(S(=O)(=O)N2C[C@H]3CON(C)[C@H]3C[C@H]2c2ccc(-c3cccc(F)c3)cc2)cc1	-7	i	-0.6	-0.4	-7
COc1ccc(NC(=O)Nc2ccc3c(c2)CC(=O)N([C@@H](C)CO)C[C@@H](C)[C@H](CN(C)S(=O)(=O)c2cn(C)cn2)O3)cc1	-20	i	-3.0	0.7	-4
CO[C@@H]1CN(C)C(=O)c2cc(NC(=O)c3ccccc3F)ccc2OC[C@@H](C)NC[C@@H]1C	6	i	2.8	-2.6	2
C[C@@H]1CN([C@@H](C)CO)C(=O)c2cccc(NC(=O)Nc3ccc4c(c3)OCO4)c2O[C@@H]1CN(C)S(=O)(=O)c1ccc(Cl)cc1	8	i	-1.5	0.7	1
COc1ccc(CNC(=O)C[C@H]2C[C@@H]3c4cc(NS(C)(=O)=O)ccc4O[C@@H]3[C@H](CO)O2)cc1	0	i	-0.3	-1.1	0
C[C@@H]1CCCCO[C@H](CN(C)C(=O)CCCN(C)C)[C@H](C)CN([C@@H](C)CO)C(=O)c2cc(NC(=O)Nc3ccc(F)cc3)ccc2O1	-3	i	0.9	-4.8	4
CCC(=O)N1CC2(CN(Cc3ccc(F)cc3)C2)c2c(n(C)c3cc(OC)ccc23)[C@@H]1CO	-9	i	-1.7	0.4	-4
O=C(C[C@@H]1CC[C@@H](NC(=O)NC2CCCCC2)[C@H](CO)O1)NCc1ccccc1	-3	i	0.0	-0.2	-9
C#CCOCCOCCOCCNc1nc(N2CCN(C(=O)[C@H](C(C)C)n3cc(CCO)nn3)CC2)nc(N2CCN(C(=O)[C@H]([C@@H](C)CC)n3cc(CCC(=O)O)nn3)CC2)n1	13	i	4.3	-5.0	16
C[C@@H]1CCCCO[C@@H](CN(C)C(=O)Nc2ccc3c(c2)OCO3)[C@H](C)CN([C@@H](C)CO)C(=O)c2cc(NS(=O)(=O)c3cccs3)ccc2O1	3	i	-0.2	4.6	-8
CC(=O)N1[C@H](CN(C)S(=O)(=O)c2ccccc2)[C@H](c2ccccc2)[C@@H]1CO	-2	i	-0.8	0.0	-4
C[C@@H]1CCCCO[C@H](CN(C)CC2CC2)[C@H](C)CN([C@H](C)CO)C(=O)c2cc(NC(=O)C3CCCCC3)ccc2O1	3	i	-1.5	9.3	2
Cc1ccc(S(=O)(=O)Nc2ccc3c(c2)C(=O)N([C@@H](C)CO)C[C@@H](C)[C@@H](CN(C)C)OCCCC[C@H](C)O3)cc1	8	i	-0.6	7.9	2
CCCNC(=O)Nc1ccc2c(c1)OC[C@@H](C)N(Cc1ccccc1)C[C@@H](C)[C@H](OC)CN(C)C2=O	-16	i	2.6	2.3	2
O=S(=O)(c1ccc(F)cc1)N1C[C@@H]2[C@H](c3ccccc31)[C@@H](CO)N2Cc1ccc2c(c1)OCO2	-30	i	-4.6	2.9	-9
O=C(c1ccncc1)N1CCCCN2[C@H](CO)[C@@H](c3ccc(C#Cc4ccccn4)cc3)[C@@H]2C1	-5	i	-1.2	-6.0	3

# Laid out differently: entries from further up
# Each structure is followed by: Ecoli rRNA inh OD600, FGF22 binding, Ecoli rRNA inh RFP, AF4-AF9 inh, Ecoli rRNA inh
C[C@@H]1CCCCO[C@H](CN(C)C(=O)CCCN(C)C)[C@H](C)CN([C@@H](C)CO)C(=O)c2cc(NC(=O)Nc3ccc(F)cc3)ccc2O1
    -3, i, 0.9, -4.8, 4
CCC(=O)N1CC2(CN(Cc3ccc(F)cc3)C2)c2c(n(C)c3cc(OC)ccc23)[C@@H]1CO
    -9, i, -1.7, 0.4, -4
O=C(C[C@@H]1CC[C@@H](NC(=O)NC2CCCCC2)[C@H](CO)O1)NCc1ccccc1
    -3, i, 0.0, -0.2, -9
C#CCOCCOCCOCCNc1nc(N2CCN(C(=O)[C@H](C(C)C)n3cc(CCO)nn3)CC2)nc(N2CCN(C(=O)[C@H]([C@@H](C)CC)n3cc(CCC(=O)O)nn3)CC2)n1
    13, i, 4.3, -5.0, 16
C[C@@H]1CCCCO[C@@H](CN(C)C(=O)Nc2ccc3c(c2)OCO3)[C@H](C)CN([C@@H](C)CO)C(=O)c2cc(NS(=O)(=O)c3cccs3)ccc2O1
    3, i, -0.2, 4.6, -8
CC(=O)N1[C@H](CN(C)S(=O)(=O)c2ccccc2)[C@H](c2ccccc2)[C@@H]1CO
    -2, i, -0.8, 0.0, -4
C[C@@H]1CCCCO[C@H](CN(C)CC2CC2)[C@H](C)CN([C@H](C)CO)C(=O)c2cc(NC(=O)C3CCCCC3)ccc2O1
    3, i, -1.5, 9.3, 2
Cc1ccc(S(=O)(=O)Nc2ccc3c(c2)C(=O)N([C@@H](C)CO)C[C@@H](C)[C@@H](CN(C)C)OCCCC[C@H](C)O3)cc1
    8, i, -0.6, 7.9, 2

# (listing goes on)
SMILES	Ecoli rRNA inh OD600	FGF22 binding	Ecoli rRNA inh RFP	AF4-AF9 inh	Ecoli rRNA inh
CO[C@@H]1CN(C)C(=O)c2ccc(NC(=O)NC(C)C)cc2OC[C@H](C)N(C(=O)NC(C)C)C[C@H]1C	-4	i	-0.9	-2.5	0
COc1ccccc1NC(=O)N(C)C[C@@H]1OCc2cn(nn2)CCCC(=O)N([C@@H](C)CO)C[C@H]1C	8&5	i	-0.7&1.4	-0.4&2.1&1.2	4&1
Nn1c(COc2ccccc2F)nnc1SCC(=O)NCC1CCCO1 (stereo not given)	0	i	-2.4	-1.5	0
COc1ccc2c3c(n(C)c2c1)[C@H](CO)N(C(=O)c1ccncc1)CC31CN(C)C1	13	i	-3.4	-2.9	5
CO[C@H]1CN(C)C(=O)c2ccc(NS(=O)(=O)c3ccc(C)cc3)cc2OC[C@@H](C)NC[C@H]1C	0	i	-0.8	-1.9	2
CC(C)(C)c1ccc(CC(=O)N2CCC2(C)C(=O)Nc2ccc3[nH]ncc3c2)cc1 (stereo not given)	-47	i	-8.5	13	-30
CCC(=O)N1CCC1(C)C(=O)Nc1ccc(OC)c(OC)c1 (stereo not given)	3	i	0.2	-1.1	3
COc1ccccc1C(CNC(=O)CCNS(=O)(=O)c1ccc(Br)cc1)N1CCCC1 (stereo not given)	8	i	1.1	?	4
CC1(C(=O)NS(=O)(=O)c2ccc(Cl)s2)CCN1C(=O)Cc1cc(F)ccc1F (stereo not given)	6	i	-3.9	-1.0	3
COC(=O)C[C@@H]1CC[C@H](NC(=O)Nc2ccc(OC)cc2)[C@@H](CO)O1	8	.	0.9	-1.7	10
C[C@@H]1CN([C@H](C)CO)C(=O)c2cc(C#Cc3ccccc3F)cnc2O[C@@H]1CN(C)C(=O)C1CC1	-9	i	1.5	-4.9	-1
C[C@H]1CN([C@@H](C)CO)C(=O)c2c(c3ccccc3n2C)-c2ccccc2CO[C@@H]1CN(C)S(=O)(=O)c1cccc(C#N)c1	10	i	-5.3	1.0	1
C[C@@H]1CCCCO[C@@H](CN(C)C(=O)Cc2ccccc2)[C@H](C)CN([C@@H](C)CO)C(=O)c2cc(NS(=O)(=O)c3cn(C)cn3)ccc2O1	-1	i	-1.3	0.7	1
CNC[C@H]1Oc2ccc(NC(=O)Nc3ccc4c(c3)OCO4)cc2CC(=O)N([C@H](C)CO)C[C@H]1C	-2	i	-2.5	0.1	4
C[C@H]1CCCCO[C@@H](CN(C)Cc2ccncc2)[C@@H](C)CN([C@@H](C)CO)C(=O)c2cc(NC(=O)CCC(F)(F)F)ccc2O1	3	i	-1.0	-8.1	-3
Cc1noc(C)c1S(=O)(=O)Nc1ccc2c(c1)CC(=O)N([C@H](C)CO)C[C@H](C)[C@@H](CN(C)S(=O)(=O)c1cccs1)O2	7	i	0.7	3.2	5
Cc1ccc(S(=O)(=O)N2CCN(CN3C(=O)CC4(CCCC4)C3=O)CC2)cc1	3	i	-1.1	-7.3	8
O=C(C[C@H]1CC[C@@H]2[C@H](COC[C@H](O)CN2C(=O)c2cnccn2)O1)NCc1ccc(Cl)cc1	5&7	i	-3.4&2.1	-4.4&0.0	1&10
CNC[C@@H]1Oc2ncc(-c3cccc(F)c3)cc2C(=O)N([C@H](C)CO)C[C@@H]1C	9	i	-1.4	2.0&6.2	3
C[C@H](CO)N1C[C@H](C)[C@H](CN(C)C)Oc2ccc(NC(=O)c3ccncc3)cc2C1=O	0	i	-3.3	0.1	-2
CN1C(=O)c2cc(NC(=O)NCc3ccccc3)ccc2OC[C@H]2O[C@@H](CC(=O)O)CC[C@@H]21	9	i	-0.5	-0.7	1
CO[C@H]1CN(C)C(=O)c2ccc(NC(=O)C3CCC3)cc2OC[C@H](C)N(C)C[C@H]1C	14	i	-3.9	-0.8	4
COc1cccc(C(=O)N2C[C@@H]3[C@H](c4ccccc42)[C@@H](CO)N3C(C)=O)c1	2	i	-2.8	0.3	1
CCC(=O)N1[C@@H]2Cn3c(ccc(-c4ccccc4)c3=O)[C@H]1[C@@H](C(=O)N1CCc3ccccc3C1)[C@@H]2CO	-1	i	1.6	-3.3	0
O=S(=O)(N[C@H]1CC[C@@H](CCn2cc(-c3cccnc3)nn2)O[C@@H]1CO)c1ccc(F)cc1	2	i	-2.3	0.4	1
CC(=O)Oc1ccccc1Cn1c(C)c(C(=O)NCc2ccc(F)cc2)sc1=O	0	i	-6.6	-2.7	0
CC(=O)N1CC2(C1)[C@@H](c1ccc(-c3ccc(C#N)cc3)cc1)[C@@H](CO)N2C(C)=O	4	i	0.0	-1.7	1
CS(=O)(=O)N(CCc1ccccc1)CC(=O)N1CCCCCC1	-5	i	-2.4	-0.9	3
C[C@@H]1CN([C@@H](C)CO)C(=O)c2cc(NS(=O)(=O)c3cn(C)cn3)ccc2O[C@@H](C)CCCCO[C@H]1CN(C)S(=O)(=O)c1ccc(Cl)cc1	-11	i	0.9	-1.4	-5
C[C@@H]1CN([C@@H](C)CO)C(=O)c2cc(NS(=O)(=O)c3ccccc3)ccc2O[C@H]1CN(C)C(=O)Nc1cccc2ccccc12	1	i	3.8	-1.5	1
O=C(N[C@H]1C=C[C@H](CC(=O)N2CCc3ccccc3C2)O[C@@H]1CO)C1CC1	1	i	-0.7	-13	3
O=C(CCN1CCN(c2ccccc2)CC1)NNC(=O)c1ccccc1	4	i	-2.8	1.0	3
CO[C@H]1CN(C)C(=O)c2cc(NC(=O)C3CC3)ccc2OC[C@@H](C)N(C(=O)c2cnccn2)C[C@H]1C	2	i	0.1	?	1
C[C@@H]1CN([C@H](C)CO)C(=O)Cc2cc(NC(=O)Nc3ccc(C(F)(F)F)cc3)ccc2O[C@H]1CN(C)C	-2	i	-2.7	0.4	-1
CC(C)c1cc(Cn2c3ccccc3c(=O)n2C(C)CBr)on1 (stereo not given)	3	i	-3.9	-4.1	2
CNC[C@H]1Oc2ccc(NS(=O)(=O)c3ccc(C)cc3)cc2C(=O)N([C@@H](C)CO)C[C@H]1C	4	i	1.5	4.4	6
CC(=O)O[C@H]1CC[C@]2(C)C3CC[C@]4(C)[C@@H]([C@H](C)/C=C/[C@H](C)C(C)C)CC[C@H]4[C@@]34C=C[C@]2(C1)N(C(=O)c1ccccc1)O4 (stereo not given in full)	6	i	-1.2	-2.0	8
O=C(NCc1ccccc1)c1cc(C2COCCN2C(=O)c2ccccc2)on1 (stereo not given)	5	i	0.5	-1.1	6
Cc1ccccc1S(=O)(=O)N1C(c2ccc(Cl)cc2)CC=C(C(=O)O)C1c1cccc(Cl)c1 (stereo not given)	-68	i	-8.8	-3.2	-37
CC(=NOC(=O)c1ccc(F)cc1)c1nccs1	9	i	2.7	0.5	16
C[C@@H]1CN([C@@H](C)CO)C(=O)c2ccccc2-c2ccccc2CO[C@@H]1CN(C)C(=O)[C@H](C)c1ccccc1	-3	i	-5.1	-0.6	1
CCCC#Cc1ccc2c(c1)O[C@@H](CN(C)Cc1ccccn1)[C@@H](C)CN([C@@H](C)CO)S2(=O)=O	-38	i	8.8	1.0	-17
CC1(C(=O)NS(=O)(=O)c2ccc3ccccc3c2)CCN1C(=O)Cc1ccc(Cl)cc1Cl (stereo not given)	-22	i	-6.0	-1.7	-14
COc1ccc(NC(=O)CCCNC(=O)c2ccc(Cl)cc2)cc1S(=O)(=O)N1CCCCC1	8	i	1.5	-2.4	8
Cc1ccc(S(=O)(=O)N(C)C[C@@H]2Oc3c(NC(=O)Nc4c(C)noc4C)cccc3C(=O)N([C@@H](C)CO)C[C@@H]2C)cc1	6	i	-1.2	0.7	1
CCCNC(=O)N1C[C@H](C)[C@@H](OC)CN(C)C(=O)c2cc(NC(=O)CCC)ccc2OC[C@H]1C	5	i	-1.1	-1.1	-2

# Bioassay records from PubChem.

# This is a subset; the hit share may differ from the screen's.
